Screening data: PubChem BioAssay, National Center for Advancing Translational Sciences (NCATS)
gsp agonist – activates gsp, the McCune-Albright syndrome mutation. gsp mutant cells, cAMP HTRF, 30 min; control for the full effect not named in the record. Potency, µM (titrated, usually from 76.9 µM), for the others: at the top dose activation (cAMP increase), actives largely listed as activators. 340,000 compounds, 0.13% hits; active = well fitted activation curve with a large enough effect; inconclusive = small, poorly fitted or top-dose-only effect, or another doubt; inactive = no such curve, though single readings can be large or run the other way; cell line not stated here;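 note: phosphodiesterase inhibitor Ro 20-1724 added with compounds to block cAMP breakdown; potency is the fitted concentration of half-maximal effect; nearly all actives have a fitted effect of over 60% in size; about a fifth of the inactives were tested at one dose only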
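Cells in DMEM/10% FBS with G418 were pretreated with compounds in DMSO plus […] (300 uM stock) for 30 min at 37C. cAMP was measured by HTRF (cAMP-d2 plus anti-cAMP antibody-K) after 30 min at room temperature.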
ClpP mod – qHTS Assay for Activators of ClpP; ATP-dependent Clp protease proteolytic subunit (Bacillus subtilis (strain 168)), P80244; purified B. subtilis ClpP, FRET peptide cleavage, 20 min; Potency, µM (top dose mostly 57.5 µM), for inactives: top-dose activity change, negative = active; 340,000 compounds, 1.9% hits; AID 651965, 2013; active = well fitted falling curve with a large enough effect; inconclusive = small, poorly fitted or top-dose-only effect; inactive = no such curve, though single readings can be large or run the other way; note: potency is the fitted concentration of half-maximal effect; the source files actives as falling curves though it sought activators and does not explain the sign; nearly all actives have a fitted effect of over 65% in size; many hits overshoot -100%
Target sequence (P80244 whole entry, looked up): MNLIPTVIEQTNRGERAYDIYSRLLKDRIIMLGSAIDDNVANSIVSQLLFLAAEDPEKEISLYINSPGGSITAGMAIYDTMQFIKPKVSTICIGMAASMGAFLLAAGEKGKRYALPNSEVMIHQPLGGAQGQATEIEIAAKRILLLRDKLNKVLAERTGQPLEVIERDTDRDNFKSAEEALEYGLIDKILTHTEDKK
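Buffer: 100 mM Tris/HCl pH8, 100 mM KCl, 0.05% low protease BSA, 2.5% glycerol, 0.01% Tween-20. ClpP 10 microg/mL final; 20 min RT; delta FRET normalized to ADEP and DMSO controls.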
Sfp PPTase inh – inhibitors of Bacillus subtilis Sfp phosphopantetheinyl transferase; Q9F4F7; Biochemical Sfp PPTase activity, qHTS; Potency, µM, inactives show max response, negative = inhibition, hits mostly inhibitors; 310,000 compounds, 3.5% hits; AID 1490; active = well fitted inhibition curve with a large enough effect; inconclusive = small, poorly fitted or top-dose-only effect, or another doubt; inactive = no such curve, though single readings can be large or run the other way;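 note: the enzyme is Sfp with the accession as filed and its product quenches rhodamine fluorescence; potency is the fitted concentration of half-maximal effect; 0% = enzyme reaction without inhibitor and -100% = no enzyme wells; top concentration of the series not given in the record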
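Compounds were incubated with enzyme (final 15 nM) for 15 min at room temperature before substrate addition started the reaction. Fluorescence at 525 nm excitation, 598 nm emission was recorded immediately and after 30 minutes.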
Menin MLL FP FL – menin-MLL binding inhibition, fluorescein peptide; Fluorescence polarization, fluorescein-MLL peptide displacement from menin; FP activity change, % at 61.4 µM; 290,000 tested, under 10 active; inconclusive = falling polarisation curve, or a change in total fluorescence; inactive = total fluorescence flat and polarisation flat or rising; no compound was filed as active; the % refers to the polarisation; negative = inhibition;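 note: % of control where 0% means no effect; inhibitors lower the polarisation; unlabelled MLL peptide was the positive control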
TRPV1 potentiator – enhances activation of the human vanilloid receptor TRPV1 | Q8NER1 | TRPV1-expressing cells, Fluo-8 calcium influx, capsaicin EC20 potentiation; host cell line not named in the record; control for the full effect not named in the record | potentiation, % at 8.33 µM | 320,000 compounds, 0.02% hits; active means potentiation above 80%; inconclusive means 30% to 80%; inactive means below 30%; note: 0% is about no effect
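Fluo-8 calcium influx in TRPV1-expressing cells, kinetic read (ex 480/em 520 nm). Compound added and read 3 min for agonist activity, followed by capsaicin at EC20 final and 2 min further read for enhancement.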
TRPML1 inh – human mucolipin-1 channel inhibition. Q9GZU1. TRPML1-inducible cells, Ca2+ dye fluorescence, FDSS; hits give low values; inhibition of EC80 agonist-evoked calcium signal. activity change, negative = inhibition, % (test concentration not listed). 390,000 compounds, 0.02% hits; in the data active means activity change below about -50%; inconclusive means about -30% to -50%; inactive means above about -30%;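 note: stimulus is agonist 54-4 at its EC80 concentration; % is set by controls: 0 for no effect and ±100 for the full control effect; compound concentration not given in the record; the text of the record puts the active cut at -80%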
Target sequence (Q9GZU1 whole entry, looked up): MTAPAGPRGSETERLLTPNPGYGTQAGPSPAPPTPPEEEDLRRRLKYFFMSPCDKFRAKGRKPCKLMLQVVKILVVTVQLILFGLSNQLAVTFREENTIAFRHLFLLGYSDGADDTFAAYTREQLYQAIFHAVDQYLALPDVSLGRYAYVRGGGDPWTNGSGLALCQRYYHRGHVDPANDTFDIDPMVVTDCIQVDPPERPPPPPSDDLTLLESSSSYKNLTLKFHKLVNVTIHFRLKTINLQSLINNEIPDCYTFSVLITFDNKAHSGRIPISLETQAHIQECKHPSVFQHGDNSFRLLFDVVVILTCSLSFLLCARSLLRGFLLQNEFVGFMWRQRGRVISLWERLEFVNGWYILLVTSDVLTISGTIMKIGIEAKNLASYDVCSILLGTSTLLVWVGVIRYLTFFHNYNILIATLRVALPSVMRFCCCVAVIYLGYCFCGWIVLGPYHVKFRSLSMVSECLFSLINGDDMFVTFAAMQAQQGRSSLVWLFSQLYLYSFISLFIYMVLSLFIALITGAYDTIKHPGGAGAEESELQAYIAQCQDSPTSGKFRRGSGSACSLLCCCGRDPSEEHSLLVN
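Tet-induced TRPML1-DL cells loaded with Ca8 no-wash calcium dye were read kinetically on FDSS. Compound addition was followed by EC80 agonist 54-4 (4 uM final); inhibition was read over 110 s.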
gsp antagonist – antagonizes gsp, the McCune-Albright syndrome mutation. gsp-mutant cells, cAMP HTRF, 30 min; control for the full effect not named in the record. 340,000 compounds, 0.4% hits. Potency, µM (series often up to 76.9 µM), for inactives: top-dose activity change, negative = inhibition, actives largely listed as inhibitors; active = falling curve of any shape with a large fitted effect; inconclusive = falling curve, mostly with a smaller effect; inactive = flat or rising curve; cell line not stated here;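 note: intracellular cAMP measured with PDE inhibitor Ro 20-1724 present during compound exposure; potency is the fitted concentration of half-maximal effect; % is set by controls: 0 for no effect and ±100 for the full control effect; nearly all actives have a fitted effect of over 65% in size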
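HTRF cAMP measurement after 30 min RT detection following 30 min, 37C compound treatment alongside […] (added as 300 uM solution) in G418-selected cells seeded at 2000/well and grown 16–24 h.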
* = called active by the depositor; ? = inconclusive; / = no result given; & = joins results of further samples; [ ] = another dose, or the depositor's remark.

SMILES | gsp agonist | ClpP mod | Sfp PPTase inh | Menin MLL FP FL | TRPV1 potentiator | TRPML1 inh | gsp antagonist
Cc1cccc(C(=O)NCC(=O)OCCOc2ccccc2Cl)c1 | 4% | -3.0% | / | / | -3 | -6 | 4%
O=C(N/N=C/c1ccc([N+](=O)[O-])o1)c1ccccc1-n1cccc1 | ? | / | 11% | 1.8 | -5 | -4 | 0%
Cc1ncoc1C(=O)Nc1nccs1 | 11% | -0.2% | -29% | 2.4 | 8 | -4 | 2%
CCNC(=S)N/N=C/c1ccc(C(=O)O)cc1 | 2%[15.4 µM] | 1.0% | ? | 0.9 | ? | 2 | 3%
CCOc1ccc(S(=O)(=O)Nc2cccc(-c3ccc(N4CCCCCC4)nn3)c2)cc1 | 8% | -7.1% | 1% | / | 6 | 25 | ?
COc1cc(-c2[nH]ncc2CN2CCc3sccc3C2)cc(OC)c1OC | 15% | -7.3% | 9% | -1.9 | 5 | -11 | 7%
COCC1CCN(Cc2nc(-c3ccc(OC)cc3)no2)CC1 | 15% | / | 10% | 0.0 | 6 | -11 | 16%
CCN(CC)CCN(C(=O)c1ccc2c(c1)OCCO2)c1nc2ccc(C)cc2s1 | 3% | -5.6% | -12% | / | 2 | -11 | 2%
CCOc1ccccc1NC(=S)C(=C([O-])c1ccc2c(c1)OCCO2)[n+]1ccc(CC)cc1 | -42%[inhibitor] | / | / | / | / | -12 | -11%
O=C(Nc1ccccc1)C1=C[C@@H](C2CCCCC2)C[C@@H](OCCCCO)O1 | / | -2.2% | -6% | -1.4 | -1 | 7 | -3%
CC(=O)Oc1ccc(-c2csnn2)cc1 | -10% | -2.5% | 6% | -0.3 | 6 | -15 | -4%[15.4 µM]
CCOC(=O)c1[nH]c(C)c(C(=O)NCCCN2CCOCC2)c1C | 9% | -0.3% | 22% | 1.7 | 1 | -5 | 9%
Cc1cccc(OCCOC(=O)C2CCN(S(=O)(=O)c3ccc(C)c(C)c3)CC2)c1 | -80%[inhibitor] | -2.2% | 5% | -0.2 | 5 | 2 | 3%
COc1cccc(C(=O)N/N=C2/SCC(=O)N2CCc2ccc(OC)c(OC)c2)c1 | -5% | 0.1% | 7% | 0.6 | 1 | -5 | -10%
CC(=O)Nc1c(C)nn(-c2ccc(C)c(C)c2)c1C | -22% | -2.5% | 10% | -0.4 | -3 | -8 | 19%
COc1ccc(CNC(=O)C2CCCN(S(=O)(=O)c3c(C)n[nH]c3C)C2)cc1 (stereo not drawn) | -21% | -0.4% | 9% | 6.7 | 4 | 5 | 0%
CCc1nnc(NC(=O)CCC(=O)Nc2ccc(C)cc2)s1 | 5% | -0.5% | -1% | / | 4 | 9 | 1%
Cc1nnc(SCC(=O)Nc2ccccc2F)n(N)c1=O | -12% | 2.5% | 6% | / | 9 | -5 | 16%
C1=C(CCNc2ncnc3c2cnn3-c2ccccc2)CCCC1 | 3% | ? | -9% | 2.7 | 1 | -9 | -2%
CCCN(CC(=O)Nc1ccccc1C)C(=O)C1CCN(S(=O)(=O)c2ccc3c(c2)OCCO3)CC1 | 17% | 0.2% | / | / | / | -4 | -12%
O=C(Nc1ccnn1C1CCN(Cc2ccc3nonc3c2)CC1)c1cccc(F)c1 | 31% | 0.2% | 17% | / | -34 | 4 | -10%
CCOc1cc(C)c(S(=O)(=O)Nc2ccc3cn[nH]c3c2)cc1C | -3% | -3.1% | -7% | 5.1 | 6 | 6 | ?
CSc1ccccc1NC(=O)CCn1c(=O)sc2ccccc21 | -31%[inhibitor] | -1.1% | 9% | 1.0 | 0 | 23 | 2%
Cc1ccc(S(=O)(=O)NCCCN2CCOCC2)cc1C | -43%[inhibitor] | -2.4% | 11% | 1.2 | -2 | ? | 1%
CCOC(=O)c1nnn(CC(=O)Nc2cccc(Cl)c2C)c1C(=O)OCC | -12% | 1.4% | 17% | 1.0 | 12 | -11 | -10%
CCS(=O)(=O)Nc1ccc(C2=NN(C(C)=O)C(c3cccs3)C2)cc1 (stereo not drawn) | 8%[15.4 µM] | / | -3% | -3.7 | -5 | 24 | -6%
COc1ccc(S(=O)(=O)NC(CC(=O)NCC2CCCO2)c2ccco2)cc1 (stereo not drawn) | 14% | -1.4% | 3% | 2.2 | -20 | -9 | 8%
Cc1ccc(-c2cc(C(F)F)n3ncc(C(=O)N4CCN(c5ccccn5)CC4)c3n2)cc1 | -16% | 1.9% | -12% | 3.4 | -19 | 19 | -17%
O=S(=O)(c1ccccc1)c1nc(-c2ccco2)oc1NCCCN1CCOCC1 | -3% | -0.2% | ? | 2.2 | -2 | 2 | -4%
CCCn1c(N)c(C(=O)CSc2nnc(N)s2)c(=O)[nH]c1=O | -1% | -3.6% | / | / | 5 | 44 | 3%
O=C(NCc1cccnc1)c1cccc(S(=O)(=O)NCc2ccccc2)c1 | -14% | -2.4% | / | / | -6 | -23 | -15%
CN(c1ccc(C(=O)NC2CC3CCC2C3)cc1)S(C)(=O)=O (stereo not drawn) | ? | -3.8% | 7% | 0.6 | -22 | -17 | 6%
O=C(NCCS(=O)(=O)N1CCN(c2ccc(F)cc2)CC1)c1ccc2c(c1)OCO2 | 6%[15.4 µM] | -6.3% | / | / | -8 | -17 | 3%
Cc1cccc(-n2c(C)cc(/C=N/NC(N)=S)c2C)c1 | -1% | -0.8% | -9% | 3.2 | -2 | 16 | -2%
COc1ccc(Cl)cc1NC(=O)c1[nH]nc(OC)c1[N+](=O)[O-] | -12% | -0.7% | 0% | -1.7 | 3 | 18 | -24%
Cc1cnc(C(=O)OC(C)C(=O)Nc2ccccc2-c2ccccc2)cn1 (stereo not drawn) | ? | -11% | / | / | 12 | 11 | 4%
CCOc1ccc2oc(C(=O)NNC(=O)c3csc(N4CCOCC4)n3)c(C)c2c1 | 0%[15.4 µM] | / | 12% | / | ? | -16 | -12%
CCC(=O)N1CCC2(CC1)Oc1ccc(Cl)cc1C(=O)C21CC(c2cccnc2)=NO1 (stereo not drawn) | -17% | -2.4% | 6% | 3.5 | 1 | -16 | -10%
O=C(Cn1cnc2c(nnn2-c2ccccc2)c1=O)N1CCOCC1 | -38%[inhibitor] | -0.6% | 7% | -0.3 | -2 | 37 | 5%
CCOc1ccc(Cn2nnc(C(=O)Nc3ccc(OC)cc3OC)c2N)cc1 | 26% | 4.1% | 9% | 3.3 | 26 | 12 | -8%

Quoted from the listing.
Under ClpP mod, Cc1cnc(C(=O)OC(C)C(=O)Nc2ccccc2-c2ccccc2)cn1 (stereo not drawn) is entered as -11%
Under TRPV1 potentiator, O=S(=O)(c1ccccc1)c1nc(-c2ccco2)oc1NCCCN1CCOCC1 is entered as -2

Next entries.
SMILES | gsp agonist | ClpP mod | Sfp PPTase inh | Menin MLL FP FL | TRPV1 potentiator | TRPML1 inh | gsp antagonist
CCOC(=O)C1CCCc2c1[nH]c1c(C(N)=O)cccc21 (stereo not drawn) | -13% | -7.2% | 7% | 0.8 | -6 | -2 | 8%
CCOc1ccc(C/C(O)=C2\C(=O)CC(C)(C)CC2=NCC(=O)O)cc1OCC | 2%[15.4 µM] | / | 14% | 0.2 | ? | 19 | 6%
COc1ccc(-c2cc(=O)c3cc(C)ccc3[nH]2)cc1 | ? | 4.1% | 6%&12% | -0.9[94.6 µM] | -16 | 9 | -2%
COc1ccccc1NC(=O)CSc1nnc(-c2ccoc2C)n1CC1CCCO1 (stereo not drawn) | -11% | -2.4% | 19% | 4.3 | 5 | -3 | -5%
O=C(CNC(=O)c1ccc(Br)o1)NCc1ccccc1Cl | -1%[15.4 µM] | -0.4% | 7% | / | 10 | -14 | -1%
COc1cccc(-c2nc(CS(=O)CC(=O)NC3CC3)c(C)o2)c1 (stereo not drawn) | 0% | ? | 21% | -0.3 | -10 | 3 | 0%
CCOc1ccc(Nc2nc3ccccc3n3nnnc23)cc1 | 15% | 18% | -9% | -6.3 | / | 11 | -5%
Cc1cc(C)cc(C(=O)n2cnnc2N)c1 | -34%[inhibitor] | -1.2% | 18% | 1.9 | -26 | -5 | -5%
O=C(NCCc1ccccc1)c1cc(S(=O)(=O)N2CCOCC2)ccc1F | 28% | -7.3% | 16% | -2.5 | -3 | -3 | 1%
CN(C)S(=O)(=O)c1ccc(S(=O)(=O)NCCN2CCOCC2)cc1 | -16% | 0.3% | -4% | 0.0 | 2 | 15 | -10%
CS/C(=N\S(=O)(=O)c1cccs1)Nc1ccc(Br)cc1F | 11%&4% | -2.0% | 22% | -1.7 | 7 | -3&2 | -11%&-6%
O=C(N/N=C/c1ccc(OC(=O)c2ccco2)cc1)c1ccc[n+]([O-])c1 | 18% | 0.3% | / | / | / | / | 4%
CCN(CCO)c1ccc(-n2c(N)c(C(=O)OC)c3nc4ccccc4nc32)cc1 | 15% | -24% | -24% | 4.4 | 12 | -27 | -17%
O=C(COC(=O)Cc1ccc(Cl)c(Cl)c1)NCc1ccco1 | 1%[15.4 µM] | / | / | / | -12 | -4 | 2%
CCC(=O)Nc1nc2ccccc2n1Cc1ccccc1C | -6% | -2.6% | -11% | 0.5 | 4 | 8 | ?
Cc1ccc(C2CC(c3ccco3)n3ncnc3N2)cc1 (stereo not drawn) | ? | -3.6% | ? | 8.4 | / | -3 | 3%
O=C1NC2CCc3nc4ccccc4c(=O)n3C2=Nc2ccccc21 (stereo not drawn) | / | 0.3% | -5% | ? | ? | / | 3%
COC(=O)C1=C(CSCc2ccco2)NC(=O)NC1c1cc(C)ccc1C (stereo not drawn) | -3% | -0.3% | -18% | 9.2 | ? | 12 | 4%
Cc1ccc(NC(=O)NNC(=O)c2cc3ccccc3cc2O)cc1C | ? | 0.8% | 6% | 6.0 | -4 | 18 | 7%
O=C(CCc1ccc(O)cc1)NN=Cc1cc(Br)ccc1O | -4% | -7.1% | / | / | / | -11 | /
O=C(c1cnn2c(C(F)(F)F)cc(-c3ccc4c(c3)OCO4)nc12)N1CCCC1 | -44%[inhibitor] | 1.8% | 10% | 2.5 | -6 | 6 | 2%
COc1ccc(C(=O)Nc2ccc(N3CCN(C(C)=O)CC3)cc2)cc1[N+](=O)[O-] | / | / | 18% | 0.4 | 3 | / | /
